Bioassay records (PubChem BioAssay)
SARS PLpro yeast = blocks SARS-CoV papain-like protease in a yeast assay | S. cerevisiae expressing SARS-CoV PLpro, growth rescue; control for the full effect not named in the record | Potency, µM (top dose mostly 32.9 µM), for the others: at the top dose activity, positive = growth rescue | 0.19% of 330,000 active | AID 485353; active means well fitted rising curve with a large enough effect; inconclusive means small, poorly fitted or top-dose-only effect; inactive means no such curve, though single readings can be large or run the other way; note: 0% is about no effect; nearly all actives have a fitted effect of over 55% in size; growth read by luminescence after 48 h
Lassa entry inh = inhibitors of Lassa virus binding or cell entry. Lassa virus pseudotype entry inhibition, cell reporter; control for the full effect not named in the record. Potency, µM (top dose mostly 37.9 µM), without a hit: at the highest dose activity change, negative = inhibition, most hits filed as inhibitors. 1.2% of 300,000 active; active means well fitted inhibition curve with a large enough effect; inconclusive means small, poorly fitted or top-dose-only effect, or effect the other way; inactive means flat fitted curve, though single readings scatter; tested in HEK293 cells; note: % is set by controls: 0 for no effect and ±100 for the full control effect; nearly all actives have a fitted effect of over 50% in size; luciferase read-out
MARV entry inh = Marburg virus entry inhibition | Marburg virus pseudotyped entry inhibition, cell reporter; control for the full effect not named in the record; about a third of the inactives were read at about 46 µM | AID 540276 | 1.8% of 300,000 active | Potency, µM (titrated, usually from 37.8 µM), without a hit: at the top dose activity change, negative = inhibition, usual class: inhibitors; active = well fitted inhibition curve with a large enough effect; inconclusive = small, poorly fitted or top-dose-only effect, or effect the other way; inactive = flat fitted curve, though single readings scatter; tested in HEK293 cells; about a fifth of its hits are not listed in these tables; note: % is set by controls: 0 for no effect and ±100 for the full control effect; luciferase read-out
NS1 inh = blocks influenza NS1 protein function | 0.4% of 270,000 active | Potency, µM (titrated, usually from 46.1 µM), for the others: at the highest dose activity, positive = more growth | S. cerevisiae slowed by influenza A NS1, growth recovery by OD600 | AID 2326; active means well fitted rising curve with a large enough effect; inconclusive means small, poorly fitted or top-dose-only effect; inactive means no such curve, though single readings can be large or run the other way; note: nearly all actives have a fitted effect of over 50% in size
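Compounds were scored for reversing the slow growth caused by influenza A NS1 in S. cerevisiae, measured by optical density at 600 nm. Assay medium contained 2% galactose at pH 6.0; NS1-free yeast of the same strain were the positive control.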
Cruzain noTriton = inhibitors of Trypanosoma cruzi cruzain without detergent; purified cruzain, Z-FR-AMC fluorescence, no detergent; Potency, µM, without a hit: max response, negative = inhibition, usual class: inhibitors; 2.3% of 200,000 active;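 note: plate controls were enzyme without inhibitor for no effect and buffer without enzyme for full effect; nearly all actives have a fitted effect of over 40% in size; top concentration of the series not given in the record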
Target sequence (P25779 123-467 limits assumed): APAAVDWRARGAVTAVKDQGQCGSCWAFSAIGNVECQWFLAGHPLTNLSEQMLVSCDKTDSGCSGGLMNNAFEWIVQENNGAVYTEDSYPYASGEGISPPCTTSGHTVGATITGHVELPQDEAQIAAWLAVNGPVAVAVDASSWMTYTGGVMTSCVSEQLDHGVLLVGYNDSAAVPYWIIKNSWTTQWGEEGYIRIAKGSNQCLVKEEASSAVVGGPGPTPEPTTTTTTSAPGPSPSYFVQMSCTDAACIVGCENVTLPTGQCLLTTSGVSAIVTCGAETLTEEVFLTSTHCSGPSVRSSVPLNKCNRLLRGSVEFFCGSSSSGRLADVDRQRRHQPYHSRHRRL
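Detergent-free condition (0.00005% Triton X-100) in acetate buffer pH 5.5 with DTT. 1.5 nM enzyme and compound were pre-mixed 15 min, then 2 uM Z-FR-AMC substrate added; reaction progress from fluorescence change between first and third reads (60 s).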
RE007 growth inh = less growth of the S. pombe RE007 Vpr strain; S. pombe RE007 Vpr strain, BacTiter-Glo ATP luminescence, 24 h; control for the full effect not named in the record; Potency, µM (doses to about 92.2 µM), inactives show at the top dose activity change, negative = less growth; 0.21% of 360,000 active; AID 651644; active = well fitted falling curve with a large enough effect; inconclusive = small, poorly fitted or top-dose-only effect; inactive = no such curve, though single readings can be large or run the other way;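 note: % is set by controls: 0 for no effect and ±100 for the full control effect; nearly all actives have a fitted effect of over 50% in size; the assay follows cell death caused by Vpr and the record does not say whether a fall means rescue or toxicity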
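Fission yeast strain RE007, carrying one chromosomally integrated HIV-1 vpr copy, was seeded at OD 0.01 in PMG+AL medium with 23 nL pinned compound. After 24 h at 30 °C and 99% humidity, viability was read by BacTiter-Glo luminescence.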
Cruzain inh Det = inhibitors of Trypanosoma cruzi cruzain with detergent | P25779 | AID 1478 | 0.43% of 200,000 active | Potency, µM, inactives show max response, negative = inhibition, most hits filed as inhibitors | purified cruzain, Z-FR-AMC fluorescence, 0.01% Triton;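 note: plate controls were neutral wells for no effect and buffer without enzyme for full effect; nearly all actives have a fitted effect of over 40% in size; top concentration of the series not given in the record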
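Read-out: AMC fluorescence (360 nm excitation, 450 nm emission), four reads over 2 min, first-to-third difference used. Conditions: cruzain 1.5 nM, Z-FR-AMC 2 uM, pH 5.5 acetate, 5 mM DTT, 0.01% Triton X-100.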
StopGo reporter = lowers the luciferase signal of an FMDV 2A StopGo reporter; human cells with a luciferase reporter of 2A StopGo recoding; control for the full effect not named in the record; AID 1159524; 1.2% of 410,000 active; Potency, µM (top dose mostly 57.9 µM), inactives show at the highest dose signal change, negative = less light; active = well fitted falling curve with a large enough effect; inconclusive = small, poorly fitted or top-dose-only effect; inactive = no such curve, though single readings can be large or run the other way; tested in HEK293T cells; note: % is set by controls: 0 for no effect and ±100 for the full control effect; nearly all actives have a fitted effect of over 45% in size; luciferase light after 4 h
Active calls of the source: *; ? = inconclusive; · = no result given; & = joins results of further samples; [ ] = another dose, or the depositor's remark. Unless noted, calls come from the whole dose curve; as a rule, active = well fitted curve in the direction sought with a large enough effect; inconclusive = small, poorly fitted or top-dose-only effect, or another doubt; inactive = no such curve, though single readings can be large; an effect the other way counts as inactive or inconclusive. Potency is the fitted concentration of half-maximal effect. Hits appear at their usual frequency; about 4.5% have a hit in one of these screens.

SMILES	SARS PLpro yeast	Lassa entry inh	MARV entry inh	NS1 inh	Cruzain noTriton	RE007 growth inh	Cruzain inh Det	StopGo reporter
O=C(c1cc2nc(-c3ccco3)cc(C(F)(F)F)n2n1)N1CCN(c2ccc(F)cc2)CC1	-4%	?	?	-62%	?	6%	-17%	·
Cc1ccc(C(C#N)c2ccc3c(C(F)(F)F)cc(C(F)(F)F)nc3n2)cc1 (stereo not drawn)	2%	?	-12%	-15%	-11%	-14%	-2.5%	?
O=C(CN1CC(=O)Oc2ccccc21)NCc1ccco1	-22%	-28%	-25%	?	14%	-7%	13%	0%
c1ccc(C(Cc2nc(-c3ccncc3)no2)c2ccccc2)cc1	-6%	?	3%	-75%	-6%	11%	-3.2%	?
CCOc1ccc(NC(=O)C2CCCN(S(=O)(=O)c3cccc4nonc34)C2)cc1 (stereo not drawn)	·	-5%[46.1 µM]	-2%[46.1 µM]	·	-1%	·	-1.4%	-14%
O=C(Nc1ccccc1C(=O)N1CCNCC1)c1ccco1	-12%	·	·	9%	4%	·	1.0%	·
Ic1ccc(N2CCN(Cc3c[nH]c4ncccc34)CC2)cc1	·	?	11µM*	?	4%	6%[18.4 µM]	-13%	-27%&-11%
COc1ccc(C(=O)OCC(=O)NCCN2C(=O)CSC2=O)cc1[N+](=O)[O-]	7%	18%[46.1 µM]	?	·	·	13%	·	0%
CCOc1cc(/C=C\[N+](=O)[O-])ccc1OCC(=O)N1CCOCC1	5%	-8%	-10%[46.1 µM]	·	·	-6%	·	8.9µM*
C/C(CC(=O)Nc1ccc(C)c(Cl)c1)=N\NC(=O)Cc1ccccc1	-14%	-3%	-2%	20%	11%	-22%	-2.6%	-20%
Cc1ccc(C)c(NC(=O)c2cc(-c3cc(C)ccc3O)n[nH]2)c1	-2%	?	7%	-1%	·	66%	·	63%[activator]
CCOc1ccc2ccccc2c1/C=N/NC(=O)CNC(=O)C(c1ccccc1)c1ccccc1	7%	·	-3%	2%	-17%	-7%	-1.1%	8%
O=C(Nc1ccc(N2CCCCC2)cc1)c1ccc(F)cc1F	0%	10µM*	?	-1%	·	-6%	·	-11%
OC(CN1C2=NCCN2c2ccccc21)c1ccccc1 (stereo not drawn)	-6%	0%	1%	3%	-9%	-3%	2.5%	-6%
CC(=O)c1ccc(NC(=O)C2CCN(S(=O)(=O)c3ccc4c(c3)N(C(C)=O)CCO4)CC2)cc1	21%	6%[46.1 µM]	22%[46.1 µM]	-14%	·	12%	·	15%
O=C(C[C@H]1C(=O)N(CCc2ccccc2)C[C@@H]1Cc1ccccc1)Nc1ccccc1	-2%	·	·	-11%	·	2%	·	0%
CCc1ccc(NC(=S)N2CCCC(C(F)(F)F)C2)cc1 (stereo not drawn)	19%	?	?	·	·	9%	·	-22%
C(#CC1CCCC1)c1ccc2c(c1)COc1c3ccccc3nn1-2	1%	·	·	0%	·	4%	·	28%
CCCCn1c(SCC(N)=O)nnc1-c1cc(OC)c(OC)c(OC)c1	7%	·	-3%	-5%	-6%	·	-0.8%	·
O=C(c1ccc2c(c1)N(Cc1ccc(Cl)cc1)C(=O)c1ccccc1S2(=O)=O)N1CCCCCC1	·	-25%[46.1 µM]	?	·	-6%	·	-1.0%	6%
CC(NCC(=O)Nc1cc(S(=O)(=O)N2CCOCC2)ccc1Cl)c1ccc(Cl)cc1Cl (stereo not drawn)	-4%	-2%	?	·	·	4%	·	?
O=C(c1cc(COc2ccc(F)cc2Cl)on1)N1CCCC(c2ccccc2)C1 (stereo not drawn)	-1%	?	?	17%	·	33%	·	-25%
CCCOP(=O)(OCCC)c1nc(-c2ccccc2)oc1NCc1ccccc1	0%	?	?	-20%	28%	-10%	-5.3%	-2%
CN1c2ccccc2C(O)=C(C(=S)Nc2ccc(F)c(Cl)c2)S1(=O)=O	-20%	?	-3%	-24%	7%	-19%	-17%	?
O=S(=O)(Nc1cc(Cl)ccn1)c1ccc(Cl)cc1	-14%	-3%	12%	-79%	?	-2%	-2.7%	54%[activator]
CSC(=NC#N)N1CCN(c2ccc([N+](=O)[O-])cc2)CC1	1%	11%	-2%[46.1 µM]	3%	·	31%	·	-26%
CC(C)CN(C(=O)c1ccc(S(=O)(=O)N2CCCC2)cc1)C1CCS(=O)(=O)C1 (stereo not drawn)	5%	1%	4%	·	·	-16%	·	-18%
Cc1cc(Oc2ccccc2)nc(SCC(=O)Nc2ccccc2)n1	-8%	1%	-7%	-21%	-7%	11%	-0.7%	-20%
O=C(N/N=C/c1cccs1)c1cccc(NC(=O)c2ccc(Cl)cc2)c1	-12%	?	4%	-5%	?	·	2.9%	·
CCN(CC)S(=O)(=O)c1ccc2oc(Nc3ccccc3)nc2c1	-4%	4%[46.1 µM]	?	11%	·	-7%	·	49%[activator]

Whole records, quoted from the list.
`CCN(CC)S(=O)(=O)c1ccc2oc(Nc3ccccc3)nc2c1` in the list: SARS PLpro yeast = -4%; Lassa entry inh = 4%[46.1 µM]; MARV entry inh = ?; NS1 inh = 11%; Cruzain noTriton = ·; RE007 growth inh = -7%; Cruzain inh Det = ·; StopGo reporter = 49%[activator]
`CC(C)CN(C(=O)c1ccc(S(=O)(=O)N2CCCC2)cc1)C1CCS(=O)(=O)C1` (stereo not drawn) in the list: SARS PLpro yeast = 5%; Lassa entry inh = 1%; MARV entry inh = 4%; NS1 inh = ·; Cruzain noTriton = ·; RE007 growth inh = -16%; Cruzain inh Det = ·; StopGo reporter = -18%

Later entries:
SMILES	SARS PLpro yeast	Lassa entry inh	MARV entry inh	NS1 inh	Cruzain noTriton	RE007 growth inh	Cruzain inh Det	StopGo reporter
Cc1ccc(C(=O)NCCCNc2ccc(C(F)(F)F)cc2[N+](=O)[O-])cc1	-13%	2%	22%	2%	?	2%	3.2%	-15%
CCOC(=O)N1CCN(C(=O)CCS(=O)(=O)c2ccc(Br)s2)CC1	4%	9%	16%	-3%	-11%	1%	4.5%	48%[activator]
COc1ccc(/C=N/N=C2/NC(=O)C(CC(=O)O)S2)cc1OS(=O)(=O)c1ccccc1 (stereo not drawn)	3%	3%[46.1 µM]	0%[46.1 µM]	-3%	·	-9%	·	-14%
CC(C)(C)c1ccc(O)c(CN2CCN(c3ccccc3)CC2)c1	-5%	-4%	-6%	1%	6%	-5%	0.9%	-8%
Cc1ccc2c(=O)cc(C(=O)NCCc3ccc(S(N)(=O)=O)cc3)oc2c1C	-1%	-12%[46.1 µM]	-21%[46.1 µM]	-1%	·	7%	·	0%
CCCc1nc(SCC(=O)O)c2sc(=S)n(-c3ccccc3)c2n1	0%	·	·	-3%	·	2%	·	-17%
CC1=C(C(=O)Nc2cc(C)cc(C)c2)C2(CCCCC2)OC1=O	·	26%[46.1 µM]	3%[46.1 µM]	·	5%	·	-1.7%	-9%
CCN(C(=O)COC(=O)c1cccc(C)c1[N+](=O)[O-])c1c(N)n(Cc2ccccc2)c(=O)[nH]c1=O	-3%	1%	?	·	·	1%	·	-18%
CC1Cc2ccccc2N1S(=O)(=O)c1c(N)n(C)c(=O)n(C)c1=O (stereo not drawn)	0%	19%	?	·	·	-20%	·	-1%
CCOC(=O)c1ccc2ncc3c(-c4ccccc4)nn(-c4ccc(F)c(Cl)c4)c3c2c1	·	-3%[46.1 µM]	5%[46.1 µM]	·	-6%	·	-1.2%	-19%

Only SARS PLpro yeast, Lassa entry inh and NS1 inh, for some of the entries so far:
canonical_smiles | SARS PLpro yeast | Lassa entry inh | NS1 inh
Cc1ccc(C(=O)NCCCNc2ccc(C(F)(F)F)cc2[N+](=O)[O-])cc1 | -13% | 2% | 2%
CCOC(=O)N1CCN(C(=O)CCS(=O)(=O)c2ccc(Br)s2)CC1 | 4% | 9% | -3%

(further entries)
SMILES	SARS PLpro yeast	Lassa entry inh	MARV entry inh	NS1 inh	Cruzain noTriton	RE007 growth inh	Cruzain inh Det	StopGo reporter
CCOC(=O)c1sc2c(c1C)c(=O)n(CCO)c(=O)n2Cc1ccccc1	0%	·	·	8%	·	-15%	·	-7%
O=C(CN1c2ccccc2Sc2ccccc21)NNC(=O)Nc1ccc(Cl)c(Cl)c1	0%	-7%[46.1 µM]	?	-4%	·	1%	·	-13%
COC(=O)CN1C(=O)Nc2ccc(C)cc2C1c1ccccc1 (stereo not drawn)	0%	·	·	1%	·	7%	·	3%
CCOc1ccc(C(=O)Nc2cccc3nsnc23)cc1[N+](=O)[O-]	0%	1%	-5%[46.1 µM]	·	·	-5%	·	-12%
O=C(CCCC(=O)OCC(Cl)=C(Cl)Cl)Nc1ccccc1F	11%	-1%	23%	-19%	-1%	6%	0.9%	8%
COCCNC(=O)C1=NOC(Cn2cc(C#N)c(=O)n(C)c2=O)C1 (stereo not drawn)	-5%	1%[46.1 µM]	13%[46.1 µM]	·	·	-13%	·	5%
NC(=O)c1ccc(NC(=O)COC(=O)CCN2C(=O)c3ccccc3C2=O)cc1	6%	-1%	?	·	·	-8%	·	-6%
Cc1nc(-c2ccc([N+](=O)[O-])cc2)nc2[nH]ccc(=O)c12	-2%	·	·	-2%	·	7%	·	57%[activator]
CN(C)S(=O)(=O)c1ccc(C(=O)Nc2cccc(S(=O)(=O)NC3=NCCC3)c2)cc1	-1%	·	·	5%	·	5%	·	5%
Cc1c(C(=O)Nc2ccc(-c3nnc4n3CCCCC4)cc2)oc2ccc(Br)cc12	-8%	?	?	?	-28%	-14%	-12%	0%
COc1ccc(N2CCN(C(=O)COc3ccc(S(=O)(=O)N4CCOCC4)cc3C)CC2)cc1	-5%	-12%	-1%[46.1 µM]	-4%	·	15%	·	?
COc1ccc(-c2c(C#Cc3ccsc3)c3cc(-c4ccc5[nH]ccc5c4)ccc3n2C)cc1	3%	·	8%	·	·	10%	·	11%
O=C(COC(=O)c1cc(Br)ccc1O)Nc1cc(S(=O)(=O)N2CCCC2)ccc1Cl	1%	7%[46.1 µM]	?	·	·	-5%	·	7%
CC(CN1CCN(CC(C)C(=O)c2ccccc2)CC1)C(=O)c1ccccc1 (stereo not drawn)	·	?	1%	·	·	-9%	·	-6%
